Screening data (PubChem BioAssay)
Rango complex inh: prevents formation of the Rango-importin beta complex | Q14974 | Rango CFP/YFP FRET sensor + importin beta, 45 min | Potency, µM (doses to about 92.2 µM), inactives show top-dose inhibition of complex formation | 0.031% of 340,000 active | AID 540263; active = rising FRET ratio curve, often small or poorly fitted; inconclusive = mostly compound fluorescence or quenching in the first reads; inactive = flat curves in all reads;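 note: potency is the fitted concentration of half-maximal effect; 0% = DMSO wells and 100% = buffer wells lacking importin beta; nearly all actives have a fitted effect of over 15% in size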
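FRET biosensor (snurportin 1 IBB flanked by EYFP and cerulean), 50 nM, with compound 5 min, then 0.125 microM importin beta in PBS, 1 mM DTT, 0.02% Tween-20, 0.1% BSA. CFP/YFP ratio read after 45 min at room temperature; pre-read flags interference.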
miR-21 reporter: raises the signal of a miR-21 reporter; AID 2288; Potency, µM (doses to about 38.3 µM), for inactives: at the top dose reporter change, positive = more light; HeLa miR-21 FLuc reporter, luciferase, 48 h; 340,000 tested, under 10 active; active = well fitted rising curve with a large enough effect; inconclusive = small, poorly fitted or top-dose-only effect; inactive = no such curve, though single readings can be large or run the other way;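 note: % of control where 0% means no effect; miR-21 action dims this reporter so a rising signal means less miR-21 action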
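Luminescence from a firefly luciferase reporter carrying a miR-21 binding site downstream, stably expressed under a CMV promoter in HeLa cells that make miR-21 endogenously, reports miRNA modulation after 48 h compound exposure up to approximately 40uM final.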
Rango release inh: inhibitors of RanGTP-induced Rango-importin beta complex dissociation. Potency, µM (highest dose often 46.1 µM), for inactives: at the top dose activity change, negative = inhibition. Biochemical FRET Rango-importin beta, RanGTP-induced dissociation. AID 540253. 0.071% of 340,000 active. O95149+P62826; active means falling FRET ratio curve, often poorly fitted, with flat reads before Ran was added; inconclusive means other falling curves, or compound fluorescence or quenching; inactive means flat or rising ratio curve;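 note: potency is the fitted concentration of half-maximal effect; % of control where 0% means no effect; nearly all actives have a fitted effect of over 45% in size; -100% = wells without RanGTP and RCC1; the record marks most hits as doubtful in a second field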
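Rango FRET biosensor (snurportin-1 IBB flanked by N-terminal EYFP and C-terminal CFP10) at 0.1 uM, with 0.25 uM importin beta in PBS, 1mM DTT, 0.02% Tween-20, 0.1% BSA. 0.6 uM Ran, 2mM GTP and 0.2 uM RCC1 were then added for 45 min at room temperature. Inhibition read as loss of FRET rise.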
GLA inh pH 4.5: inhibitors of human alpha-galactosidase A at pH 4.5; P06280; AID 1467; purified enzyme, 4-MU-alpha-Gal fluorescence, pH 4.5; 230,000 tested, under 10 active; activity change, negative = inhibition, % at 105 µM; inconclusive = small, poorly fitted or top-dose-only inhibition, or a rising curve; inactive = flat fitted curve, though single readings scatter; no compound was filed as active;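 note: 0% = full activity with enzyme and -100% = basal without enzyme; dose as in the result columns while the protocol names 77 µM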
Target sequence (P06280 whole entry, looked up): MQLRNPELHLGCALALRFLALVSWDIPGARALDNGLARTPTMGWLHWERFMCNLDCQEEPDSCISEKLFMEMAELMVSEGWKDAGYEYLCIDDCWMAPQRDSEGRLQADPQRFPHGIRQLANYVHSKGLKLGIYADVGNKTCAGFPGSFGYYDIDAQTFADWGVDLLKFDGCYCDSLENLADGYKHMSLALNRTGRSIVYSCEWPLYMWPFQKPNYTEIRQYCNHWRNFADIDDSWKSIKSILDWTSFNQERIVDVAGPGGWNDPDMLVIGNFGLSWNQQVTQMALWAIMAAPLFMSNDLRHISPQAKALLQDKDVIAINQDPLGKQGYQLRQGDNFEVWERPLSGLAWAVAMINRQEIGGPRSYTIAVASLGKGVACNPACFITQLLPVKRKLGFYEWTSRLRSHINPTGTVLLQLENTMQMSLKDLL
* = called active by the depositor; ? = inconclusive; nt = not tested or not shown; & = joins results of further samples. Some of the compounds tested; the hit share may differ from the screen's.

SMILES	Rango complex inh	miR-21 reporter	Rango release inh	GLA inh pH 4.5
CCOc1ccccc1C1C(C#N)=C(N)Oc2cc(C)n(Cc3ccccn3)c(=O)c21 (configuration not stated)	?	-5%	-19%	2
CCOC(=O)c1cccc(NC(=O)c2ccc(NC(=O)C3CCCO3)cc2)c1 (configuration not stated)	-3.5%	2%	11%	nt
N#Cc1cccc(NS(=O)(=O)c2ccccc2Cl)c1	-2.1%	nt	-1%	nt
CC1CC(Nc2ccccc2N)=CC(=O)O1 (configuration not stated)	-4.6%	-27%	1%	4
COc1ccc(/C=N/NC(=O)c2ccccc2Cl)cc1CSc1nc2ccccc2s1	15%	16%	38%	2
CCc1c(C)nc2ncnn2c1N1CCCC(C(=O)NCc2ccco2)C1 (configuration not stated)	1.7%	-6%	24%	15
CCn1cc(C(=O)NCC(OC)OC)c(=O)c2cc(S(=O)(=O)N(C)C3CCCCC3)ccc21	6.0%	10%	17%	nt
Cc1ccc(OCCC(=O)OCc2csc(CC(=O)Nc3ccccc3C)n2)cc1	-0.6%	-2%	0%	nt
Cc1cc([N+](=O)[O-])ccc1NC(=S)NC1CCCC1	-0.7%	0%	1%	nt
Nc1ccccc1NC1=CC(=O)CC(c2ccco2)C1 (configuration not stated)	-0.3%	-39%	16%	-1
Cc1cc(C)cc(N(CCC(=O)Nc2nnc(C3CC3)s2)S(=O)(=O)c2ccc(Cl)cc2)c1	2.2%	-9%	-5%	1
Cc1[nH]nc(-c2ccc(OCc3cnn(-c4ccccc4)c3)cc2O)c1Oc1ccc(F)cc1	0.0%	-12%	0%	8
CC(C)(C)C(=O)O/N=C1\CCS(=O)(=O)c2sccc21	-5.4%	-3%	-7%	5
CCOC(=O)C1C(c2cc(OC)c(OC)c(OC)c2)NC(=S)NC1(O)C(F)(F)F (configuration not stated)	3.3%	-6%	1%	0
CC(C)C1C(c2ccccc2)N(C)C(c2ccccc2)CC1(O)c1ccccc1 (configuration not stated)	-0.2%	-3%	-11%	-2
CN1CCc2c(c3c(n2C)CCN(C)[C@H]3c2ccccc2F)[C@@H]1c1ccccc1F	nt	0%	nt	-9
CN1CCN/C1=C(/C(Cl)=C(Cl)Cl)[N+](=O)[O-]	-0.5%	2%	27%	0
CCc1nc(Nc2ccc(O)cc2)c2oc3ccccc3c2n1	0.9%	8%	2%	nt
CC1CCN(C(=O)COC(=O)c2ccc(Cl)nc2)CC1	-1.5%	nt	32%	nt
O=C(NCCc1ccccc1)c1ccc(NC(=O)C2CCCC2)cc1	0.3%	nt	6%	nt
COc1cccc(-c2nc(CS(=O)CC(=O)NCc3ccc(F)cc3)c(C)o2)c1 (configuration not stated)	1.8%	-4%	11%	nt
Cc1cc(Cl)ccc1OC(C)C(=O)OCC(=O)Nc1ccc2[nH]c(=O)[nH]c2c1 (configuration not stated)	-0.3%	nt	-5%	nt
CC(=O)N1CC(=O)N(OCc2ccccc2)C1c1ccc(Cl)cc1Cl (configuration not stated)	3.0%	-8%	7%	-2
CCCCCn1c(=O)[nH]c2cc(C(=O)O)ccc2c1=O	0.8%	-5%	-2%	7
CCOc1cccc(-c2c(C(=O)N/N=C/c3ccc(C)o3)nnn2-c2nonc2N)c1	-1.2%	-8%	14%	nt

Some of these compounds in order of SMILES length, rising.
SMILES	Rango complex inh	miR-21 reporter	Rango release inh	GLA inh pH 4.5
CC1CC(Nc2ccccc2N)=CC(=O)O1 (configuration not stated)	-4.6%	-27%	1%	4
Nc1ccccc1NC1=CC(=O)CC(c2ccco2)C1 (configuration not stated)	-0.3%	-39%	16%	-1
CC1CCN(C(=O)COC(=O)c2ccc(Cl)nc2)CC1	-1.5%	nt	32%	nt
CCCCCn1c(=O)[nH]c2cc(C(=O)O)ccc2c1=O	0.8%	-5%	-2%	7
O=C(NCCc1ccccc1)c1ccc(NC(=O)C2CCCC2)cc1	0.3%	nt	6%	nt
CCc1c(C)nc2ncnn2c1N1CCCC(C(=O)NCc2ccco2)C1 (configuration not stated)	1.7%	-6%	24%	15
Cc1ccc(OCCC(=O)OCc2csc(CC(=O)Nc3ccccc3C)n2)cc1	-0.6%	-2%	0%	nt
CCOC(=O)c1cccc(NC(=O)c2ccc(NC(=O)C3CCCO3)cc2)c1 (configuration not stated)	-3.5%	2%	11%	nt
CCOC(=O)C1C(c2cc(OC)c(OC)c(OC)c2)NC(=S)NC1(O)C(F)(F)F (configuration not stated)	3.3%	-6%	1%	0
CN1CCc2c(c3c(n2C)CCN(C)[C@H]3c2ccccc2F)[C@@H]1c1ccccc1F	nt	0%	nt	-9
CCn1cc(C(=O)NCC(OC)OC)c(=O)c2cc(S(=O)(=O)N(C)C3CCCCC3)ccc21	6.0%	10%	17%	nt

(next part)
SMILES	Rango complex inh	miR-21 reporter	Rango release inh	GLA inh pH 4.5
O=C(NCc1ccco1)C1CC(O)CN1C(=O)Nc1ccccc1 (configuration not stated)	2.0%	0%	2%	nt
O=C(NCCN1CCOCC1)/C(=C/c1ccccc1)NC(=O)c1ccccc1	0.0%	0%	-10%	nt
O=C(NCc1ccc(F)cc1)c1cc(-c2ccncc2)nc2ccccc12	4.6%	15%	9%	nt
Cc1ccc(-n2c(SCC(=O)NCC3CCCO3)nc3ccccc3c2=O)cc1 (configuration not stated)	-2.7%	nt	9%	nt
O=C(O)CCn1c(SCc2ccccc2)nc2ccccc21	-0.1%	-28%	1%	-5
O=c1[nH]c2cc(Cl)cc(Cl)c2[nH]c1=O	0.9%	-9%	-1%	-15
CN(CCc1ccccc1)C1CCCN(S(=O)(=O)N(C)C)C1 (configuration not stated)	-0.3%	-1%	1%	nt
O=C(C(=O)N1CCN(c2cccc(Cl)c2)CC1)N1CCCCC1	-3.2%	-1%	?	-2
O=C(O)C1CSC2(c3ccc(Br)cc3)CCC(=O)N12 (configuration not stated)	1.3%	-2%	2%	3
CCCCc1nnc(NC(=O)Cc2ccc(OC)c(S(=O)(=O)N3CCOCC3)c2)s1	2.4%	nt	-8%	nt
O=C(COC(=O)Cc1ccc(F)cc1)NCCc1ccccc1	0.4%	nt	12%	nt
COc1ccc(CN([C@H](C)CO)S(=O)(=O)N(Cc2ccccc2)[C@H](CO)C(C)C)cc1	-0.5%	nt	0%	nt
CC(C)(C)n1nc2c(c1NC(=O)c1cc([N+](=O)[O-])ccc1Cl)CS(=O)(=O)C2	0.2%	29%	13%	nt
CNc1ccccc(-c2ccc3cc4c(cc3n2)OCO4)c1=O	?	-63%	?	-1
Cc1ccc(-c2cc(C(F)F)n3ncc(C(=O)NN4CCCCC4)c3n2)cc1	?	1%	-1%	0
COc1ccccc1-c1oc2ccccc2c1C#CC1(O)CCCCC1	-0.1%	nt	-10%	nt
CCCOc1ccccc1Cn1c(=O)oc2ccc(C)cc21	-0.8%	-11%	13%	-17
CCN(c1ccccc1)S(=O)(=O)c1ccc(OC)c(NC(=O)Cn2cnc3c2c(=O)n(C)c(=O)n3C)c1	0.6%	-7%	-9%	-4
CCNc1nc(NCC)n2c(SCC(=O)O)nnc2n1	2.2%	-2%	4%	1
CC1N(C)c2cc(NC(=O)c3cccs3)c(P(=O)(Nc3ccc([N+](=O)[O-])cc3)N3CCOCC3)cc2C1(C)C (configuration not stated)	0.7%	11%	32%	-7
CC(C)CC(=O)Nc1ccc(S(=O)(=O)N2CCCC2)cc1	2.6%	1%	?	nt
COC(=O)c1ccc(NC(=O)Cn2nc(C(=O)Nc3ccc(C)cc3)ccc2=O)cc1	3.3%	-2%&4%	-12%	nt
Cc1ccc(C)c(NC(=O)CN2C(=O)NC(C)(c3ccc4c(c3)OCCO4)C2=O)c1 (configuration not stated)	5.6%	nt	32%	nt
COc1cc(C)ccc1OCC(=O)Nc1nnc(C2CC2)s1	2.7%	nt	?	nt
CC(C)CCNC(=O)CN(CC1CCCO1)C(=O)CCC(=O)Nc1nccs1 (configuration not stated)	-2.4%	-4%	-6%	-9
SMILES	Rango complex inh	miR-21 reporter	Rango release inh	GLA inh pH 4.5
O=C(C=Cc1ccccc1)NCCNC(=O)C=Cc1ccccc1	0.3%	nt	-1%	nt
C=C1CCC[C@]2(C)C[C@H]3OC(=O)C(CN(C)CC(OC)OC)[C@H]3CC12 (some centres not stated)	-0.8%	5%	0%	nt
Cc1ccc(-c2csc(NS(=O)(=O)c3cccc(F)c3)n2)o1	0.7%	nt	-8%	nt
O=C(NNC(=S)NCc1ccc(Cl)cc1)c1cccnc1	-0.6%	-1%	-12%	nt
O=C(NCCc1ccccc1)c1ccc(CS(=O)(=O)c2ccc(Cl)cc2)o1	0.4%	2%&-1%	15%	-5
O=C(COc1ccccc1)Nc1ccc([N+](=O)[O-])cc1	4.2%	-20%	16%	-1
COc1ccc(C(=O)Nc2ccc(N3CCCCCC3)cc2)cc1S(=O)(=O)N1CCOCC1	-3.0%	nt	7%	nt
CCn1cc(C(=O)O)c(=O)c2cc(F)c(N3CCN(C(=S)NC(=O)c4ccc(F)c(F)c4)CC3)cc21	-3.5%	0%	-11%	5
COc1cccc(NC(=O)Nc2ccc(CC(=O)O)cc2)c1	0.1%	4%	-18%	0
COc1ccc(O)c(-c2cn[nH]c2-c2cccs2)c1	0.7%	-1%	-4%	-6
Cc1ccc(Nc2c(O)nc[nH]c2=O)cc1C	-7.4%	nt	15%	nt
O=C(Nc1ccc2c(c1)OCCO2)C1CCCN(S(=O)(=O)c2cccnc2)C1 (configuration not stated)	0.6%	-8%	-23%	8
Cc1ccc(C(=O)NCCC(=O)N2CCC3(CC2)NCCc2[nH]cnc23)cc1C	-3.1%	-3%	-5%	nt
Oc1c(Br)cc(CNC2CCCCC2)cc1Br	-3.4%	nt	-2%	nt
COc1ccc(-n2cc(C#N)c(=O)[nH]c2=O)cc1	5.0%	-24%	-2%	5
O=C(CSc1nc(O)c(C2CCCCC2)c(=O)[nH]1)Nc1ccc(Cl)cc1	0.2%	-1%	2%	5
Cc1ccnc(NC(=O)CNC(=O)c2ccc3ccccc3c2)c1	0.0%	nt	34%	nt
Cn1c(NC(=O)c2cc(-c3ccc4c(c3)OCO4)nc3ccccc23)cc(=O)n(C)c1=O	-2.6%	-59%	6%	-17
COc1ccc2nc(SCC(=O)c3ccco3)[nH]c2c1	1.3%	-47%	9%	-4
COC(=O)C1=C[C@@H](C(=O)OC)C2C3=C(C(=O)C24CCCCC4)[C@H](C)n2c(=O)n(C)c(=O)n2[C@@H]3C1 (some centres not stated)	0.1%	nt	-1%	nt
C/C(=N/NC(=O)c1sc(=S)n(C)c1C)c1ccccc1	0.5%	-4%	-7%	1
CCN1C(=O)[C@H]2[C@@H](c3ccc(-c4ccc(C(C)=O)cc4)c(OC)c3)N[C@@](Cc3ccccc3)(C(=O)OC)[C@H]2C1=O	?	nt	26%	nt
Cc1ccc(NC(=O)CN(C)C(=O)/C=C/c2ccc3c(c2)OCO3)cc1	3.8%	nt	8%	nt
Cc1cc(C)nc(SCC(=O)N2CCOCC2)n1	-3.4%	-3%	2%	1
COc1cccc(Cn2cnc3c([N+](=O)[O-])c(C)c(C)cc32)c1	1.8%	-3%	2%	-1
SMILES	Rango complex inh	miR-21 reporter	Rango release inh	GLA inh pH 4.5
CCC(C)(C)NC(=O)C(c1cccc(OC)c1OC)N(C(=O)CCC(=O)Nc1cc(C)on1)C(C)C (configuration not stated)	2.4%	-3%	10%	nt
Cc1ccccc1Nc1nc(N2CCOCC2)nc(N2CCOCC2)n1	2.4%	-3%	-9%	nt
O=C(CSc1nnc(SCc2ccc(Cl)cc2)s1)N1CCN(C(=O)c2ccco2)CC1	3.8%	-9%	-17%	-2
CC1C(O)=C(c2nc3ccccc3[nH]2)C(=N)N1c1ccccc1 (configuration not stated)	-0.3%	-22%	1%	5
O=C1C(C=NCCCN2CCOCC2)=C(O)c2ccccc21	-3.3%	-19%	3%	4
C#CCNC(=O)C1=C[C@H](c2ccc3c(c2)OCO3)C[C@H](OCCCCO)O1	-2.2%	nt	-8%	nt
O=C(CCN1CCN(c2ccccc2)CC1)NNC(=S)Nc1ccccc1	-2.7%	-2%	14%	2
C(=N\Nc1ccc2nncn2n1)/c1ccco1	1.9%	0%	11%	1
